eIF4H inh: inhibitors of RNA binding by human eIF4H. Q15056. eIF4H fluorescence polarization binding assay. inhibition, % at 35 µM. 290,000 tested, 0.94% active. AID 2012;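 active = 50% or more with normal probe brightness, or confirmed in later tests; inconclusive = above 50% with abnormal brightness, or retests that disagree; inactive = below 50% or failed in later tests; about a fifth of its hits are not listed in these tables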;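 also: calls also rest on retests at 20 µM and on dose response follow-up; 0% = protein and probe with vehicle and 100% = probe without protein; strong numbers were not always called active; many hits fall short of the cut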
PABP polyA inh: blocks human PABP binding to poly(A) RNA | P11940 | fluorescence polarization | inhibition, % at 35 µM | 290,000 tested, 1% active | AID 2014;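 active = 50% or more with normal probe brightness, or confirmed in later tests; inconclusive = above 50% with abnormal brightness, or retests that disagree; inactive = below 50% or failed in later tests; about a fifth of its hits are not listed in these tables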;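 also: calls also rest on retests at 20 µM and on dose response follow-up; controls were probe without protein and protein plus probe with vehicle; some compounds called inactive have numbers as strong as hits; many hits fall short of the cut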
Target sequence (P11940 whole entry, looked up): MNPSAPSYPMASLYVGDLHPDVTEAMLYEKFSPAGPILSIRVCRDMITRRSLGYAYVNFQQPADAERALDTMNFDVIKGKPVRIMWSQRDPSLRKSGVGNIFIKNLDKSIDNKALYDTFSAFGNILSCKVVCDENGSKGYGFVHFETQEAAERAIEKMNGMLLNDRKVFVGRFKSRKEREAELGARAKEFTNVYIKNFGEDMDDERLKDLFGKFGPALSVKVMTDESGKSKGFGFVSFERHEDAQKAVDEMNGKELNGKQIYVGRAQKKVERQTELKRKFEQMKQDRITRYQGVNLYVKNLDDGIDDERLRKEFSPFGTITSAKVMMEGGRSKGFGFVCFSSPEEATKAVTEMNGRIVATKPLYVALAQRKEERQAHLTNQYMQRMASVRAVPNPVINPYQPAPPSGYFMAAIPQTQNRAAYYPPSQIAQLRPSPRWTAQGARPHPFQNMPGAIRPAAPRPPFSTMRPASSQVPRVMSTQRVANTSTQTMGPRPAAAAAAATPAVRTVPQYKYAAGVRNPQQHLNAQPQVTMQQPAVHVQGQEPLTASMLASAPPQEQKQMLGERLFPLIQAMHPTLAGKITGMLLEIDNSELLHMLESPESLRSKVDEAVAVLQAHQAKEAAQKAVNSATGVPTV
CSC inhib: cancer stem cell inhibition. 300,000 tested, 1.1% active. inhibition, % at 7.5 µM. AID 2717. cancer stem cell-like cells viability, luminescence;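 active = mean at 75% or more and at least half the replicates too; inconclusive = mean and replicates disagree; tested in HMLE shEcad cells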;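 also: 0% = median of negative and 100% = median of positive control wells; the first replicate is given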
MT1-MMP act inh: inhibitors of human MT1-MMP activation; GFP/RFP ratio change, % at 20 µM; 360,000 tested, 0.061% active; AID 651647; P50281; HT1080 RFP-PRO-GFP cells, GFP/RFP ratio fluorescence, overnight; percent of plate control window, DMSO zero;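 active = GFP/RFP ratio change of at least 30% with cell ATP level not reduced by more than half and red fluorescence within 50% of control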; also: strong numbers were not always called active
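Test system: HT1080 RFP-PRO-GFP cells; Benchmarks: DMSO and RFP-L50D-GFP cell wells; Timing: cells overnight before dosing, compound overnight, 37 °C, 5% CO2; Compound: one 20 µM compound dose with 1% DMSO; Read-out: GFP/RFP fluorescence ratio.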
Rce1 inhib: blocks yeast Ras-converting enzyme | 290,000 tested, 0.27% active | calls only | yeast membranes, quenched prenylated peptide cleavage fluorescence | Q03530 | AID 2563;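 active = fall in fluorescence gain of 50% or more versus controls, with final raw signal at or below 3038400; inconclusive = same 50% fall but final raw signal above 3038400; inactive = fall in fluorescence gain under 50%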;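 also: plate controls were neutral control wells for no effect and wells lacking membranes for full effect; tested at 10 µM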
UUG fidelity: yeast start codon fidelity modulation | S. cerevisiae UUG-firefly luciferase reporter, luminescence/redox ratio | activity score, % at 18.7 µM | 350,000 tested, 0.13% active | AID 602363;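 active = replicate mean at a twofold rise or more, about +100% in these data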;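 also: firefly luciferase made from a UUG start codon reports start codon fidelity; reporter light over untreated wells divided by growth signal over untreated wells; some hits fall short of that in this replicate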
Env fusion inh: blocks HIV Env-driven cell-cell fusion. HeLa-JRFL Env/CEM21 cell fusion, luciferase. inhibition, % at 12.3 µM. 360,000 tested, 1.1% active. AID 651610;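 active = mean replicate inhibition score of at least 50 and every replicate individually at or above 50; inconclusive = only one of the two criteria met; inactive = mean below 50 and not all replicates reaching 50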;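 also: 0% = plate neutral controls and 100% = maraviroc near 300 nM; one replicate is shown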
MT1-MMP act inh RFP: recorded beside MT1-MMP act inh, whose call it bears; RFP signal change, %; measured here: RFP expression control read;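 0 = vehicle wells; hits needed this value within 50% of zero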
* = called active by the depositor; i = inactive; u = inconclusive; x = not tested or not shown; & = joins results of further samples.

SMILES	eIF4H inh	PABP polyA inh	CSC inhib	MT1-MMP act inh	MT1-MMP act inh RFP	Rce1 inhib	UUG fidelity	Env fusion inh
CC1CN(C(=O)COC(=O)c2ccc3ccccc3c2)CC(C)O1 (stereo not drawn)	x	x	x	-3	-4	x	1	0
CC(=O)CC(=O)NC(=NC1CCCCC1)Nc1nc(C)cc(C)n1	-6	-2	-4	-3	-1	i	-4	-24
COc1cc2c(cc1OC)C(C)N(C(=O)/C=C/c1cc(OC)c(OC)c(OC)c1)CC2 (stereo not drawn)	-13	8	x	2	2	i	-11	3
CCn1c(CSc2nc(C)cc(C)n2)nnc1SCC(N)=O	5	-5	29	-6	1	i	x	3
O=C(CNC(=O)c1cccc(F)c1)OCC(=O)N1CCCc2ccccc21	0	10	7	-6	2	i	-4	-63
Cc1ccc(CN2CCN(/N=C/c3cccnc3)CC2)cc1	-6	10	-3	3	2	i	-17	4
O=C(NCc1ccco1)C(c1ccc(F)cc1)N(C(=O)Cc1cccs1)c1cccnc1 (stereo not drawn)	-9	-2	x	-9	-1	i	4	7
O=C(c1ccc2c(=O)n3c(nc2c1)CCCCC3)N1CCN(c2ccc(Cl)cc2)CC1	0	-7	44	0	-4	i	-1	x
Cc1cc(NC(=O)c2cc(-c3ccccn3)nc3c(Cl)cccc23)no1	18	2	6	-3	3	i	-12	-40
Cc1ccccc1/C=C1\Oc2ccccc2C1=O	x	x	13	3	3	x	-3	-34
Cn1c(SCC(=O)NC2CCCC2)nc2c(c1=O)SCC2	-4	9	-3	-2	-4	i	-17	8
Cc1ccc(C)c2[nH]c(=O)c(CN(Cc3cccs3)C(=S)NCc3ccco3)cc12	-4	-4	10	-1	1	i	-3	-86
COCCNC(=O)C(OC(=O)c1ccco1)c1ccc(OC)cc1 (stereo not drawn)	x	x	x	-4	0	x	-7	21
Cc1ccc(/C=N/NC(=O)C2(O)c3ccccc3-c3ccccc32)o1	6	-5	3	4	5	i	x	-10
Cc1onc(-c2ccccc2)c1C(=O)OCC(=O)NC(=O)c1ccccc1	x	x	-11	1	3	i	x	0
COc1ccc(CNC(=O)C2CCCN2C(=O)NCc2ccccc2)cc1 (stereo not drawn)	-2	-4	3	-8	2	i	-2	9
N#Cc1ccccc1NC(=O)COC(=O)CN1C(=O)C2CCCCC2C1=O (stereo not drawn)	x	x	-5	-1	2	x	-5	15
O=C(COc1ccccc1)Nc1nccs1	2	17	7	4	5	i	-46	x
CCOc1ccc(NS(=O)(=O)c2cc(C(=O)NCC3CCCO3)ccc2Cl)cc1 (stereo not drawn)	x	x	9	1	-3	i	-11	-8
CCOC(=O)C1(Cc2ccc(Cl)cc2)CCN(Cc2cnc(N)nc2)CC1	1	-4	33	-1	0	i	x	19
O=C(Cn1c(=O)oc2cc(S(=O)(=O)N3CCCC3)ccc21)N1CCN(c2ccccc2)CC1	-1	-2	2	-3	4	i	-23	7
O=C(O)C1CC=CCC1C(=O)Nc1ccccc1C(=O)N1CCN(c2ccccc2)CC1 (stereo not drawn)	10	2	3	-4	1	i	-10	x
CCN(CC)c1ccc2cc(C(=O)NCc3ccc(F)cc3)c(=N)oc2c1	u	u	28	-61	-1	i	-6	-7
Cc1noc(C)c1COc1ccc(C(=O)OCC(=O)N2CC3(C)CC2CC(C)(C)C3)cc1 (stereo not drawn)	18	10	-10	-7	-6	x	12	15
C=CCc1cc(Cl)ccc1OCCCn1ccnc1	-2	0	3	0	-2	i	0	26
N#Cc1nnn(-c2ccc(Cl)cc2)c1N	-16&-12	-7&-3	x	-1	4	i	x	x
Cc1cc2c(cc1S(=O)(=O)N1CCCC1)n(C)c(=O)c(=O)n2C	3	2	x	5	7	i	-1	-8
CN(Cc1ccccc1)C(=O)COC(=O)CCC(=O)c1ccc(Cl)cc1	x	x	x	1	5	x	-12	8
Cc1cccc(N=c2c([N+](=O)[O-])nn(-c3ccc(Cl)cc3)n2O)c1	0	9	11	5	3	i	-12	-4
CCOc1ccc(NC(=O)CSc2ccc(-c3cccnc3)nn2)cc1	-13	-11	1	3	-3	i	-10	10

Part of the list above in order of SMILES length, descending:
SMILES	eIF4H inh	PABP polyA inh	CSC inhib	MT1-MMP act inh	MT1-MMP act inh RFP	Rce1 inhib	UUG fidelity	Env fusion inh
Cc1ccc(C)c2[nH]c(=O)c(CN(Cc3cccs3)C(=S)NCc3ccco3)cc12	-4	-4	10	-1	1	i	-3	-86
CCOc1ccc(NS(=O)(=O)c2cc(C(=O)NCC3CCCO3)ccc2Cl)cc1 (stereo not drawn)	x	x	9	1	-3	i	-11	-8
Cc1onc(-c2ccccc2)c1C(=O)OCC(=O)NC(=O)c1ccccc1	x	x	-11	1	3	i	x	0

(cont.)
SMILES	eIF4H inh	PABP polyA inh	CSC inhib	MT1-MMP act inh	MT1-MMP act inh RFP	Rce1 inhib	UUG fidelity	Env fusion inh
O=C(NCc1ccc(-c2csnn2)cc1)C1CC1	-9	-2	0	-6	0	i	-13	2
Nc1nnc(SCC(=O)Nc2ccc(Cl)c(C(=O)O)c2)s1	6	-2	x	1	1	i	x	24
CCOc1c(Cl)cc(C(=O)Nc2ccccc2C(=O)O)cc1Cl	-2	17	36	8	-3	i	-2	-183
O=C(CSc1nnc(CNc2cccc(C(F)(F)F)c2)n1Cc1ccco1)NCc1ccco1	3	13	-3	9	9	i	0	-50
COc1ccc(NC(=O)COC(=O)CNS(=O)(=O)c2ccc(F)c(F)c2F)cc1OC	2	-3	x	0	6	i	x	-28
CCOc1ccc(S(=O)(=O)N2CCCC(C(=O)NCc3ccncc3)C2)cc1Cl (stereo not drawn)	-9	7	4	-1	-10	i	-6	21
COc1ccc(S(=O)(=O)N2CCN(C(=O)N3CCOCC3)C2C)cc1 (stereo not drawn)	-9	-4	15	0	1	i	-15	-17
CCOC(=O)CCNCc1ccc(OC)c(OC)c1	-7	5	-15	-1	6	i	x	0
CC(=O)NCCc1nc(-c2ccc(Cl)cc2)no1	x	x	5	-1	-2	i	-12	-24
CCC1(O)CC(C(=O)OC)=NN1C(=O)c1ccccc1 (stereo not drawn)	-12	0	0	3	4	i	-5	x
O=C(O)Cn1c(=O)c(F)cn(C2CCCO2)c1=O (stereo not drawn)	-6	2	-14	-1	4	x	-9	10
COc1ccc(NC(C)=O)cc1NC(=O)CSc1nnc(-c2ccccn2)n1C	6	-2	1	3	2	i	2	-20
C=CCNC(=O)COCc1cc(-c2ccc3c(c2)OCO3)on1	3	-1	5	6	-2	i	-7	-4
CSc1ncc(Cl)c(C(=O)Nc2ccc(C)c(C)c2)n1	-16	-5	6	-6	-4	i	-15	4
O=C(NCc1ccccc1)C(=O)NCC1OCCN1S(=O)(=O)c1ccc(Br)cc1 (stereo not drawn)	-5	7	-4	3	-4	i	-2	7
O=C(Oc1ccc(/C=N/n2cnnc2)cc1)c1cccc([N+](=O)[O-])c1	5	31	-14	1	1	i	x	-23
COc1ccc(CNC(=O)CN=C2NC(=O)C(c3ccccc3)(c3ccccc3)N2)cc1	0	-2	23	0	1	i	-19	6
COc1cccc(N2CCN(C(=O)NC3CCCCC3)CC2)c1	10	-10	3	0	-2	x	-17	x
COc1cccc(CN2CCSCC2)c1OC	13	2	-14	-2	-2	i	-16	4
CC(=O)OC(C)C(=O)NS(=O)(=O)c1ccc(C)cc1 (stereo not drawn)	7	-2	x	1	0	i	-11	5
Nc1nc2ccccc2n1C(=O)c1cccs1	-7	22	1	6	2	i	-27	-31
S=c1[nH]nc(Cc2ccccc2)n1-c1ccccc1	-2	0	-12	4	7	i	-6	-12
CCCCN(CC(=O)NCCOC)C(=O)Cn1nnc2ccccc21	-9	8	-11	4	3	i	-29	3
COc1ccc(N(CC(=O)N/N=C/c2cccs2)S(=O)(=O)c2ccc(OC)c(OC)c2)cc1	-3	10	6	-2	-5	i	2	x
O=C(O)CC/C(=N\NC(=O)CNC(=O)/C=C/c1ccccc1)c1ccccc1	4	8	-14	4	9	i	-20	-1
CCCCCOc1ccc(C(=O)NCC(=O)NCC(=O)OCC)cc1	-3	9	19	2	3	i	-3	x
CC(C)Cn1c(=O)c2ccccc2c2ccccc2c1=O	5	-8	6	-2	-3	i	6	x
Cc1cc(C)c(C#N)c(SCS(=O)c2ccc(C(C)(C)C)cc2)n1 (stereo not drawn)	2	-2	-12	3	0	i	0	x
Cc1cc(C(=O)COC(=O)c2ccco2)c(C)n1Cc1ccco1	26	6	-13	1	0	i	x	-24
CCn1c(N)c(C(=O)NC)sc1=S	-14	14	7	0	3	i	-7	-57

Retrieved one by one from the entries so far, 6 records:
SMILES	eIF4H inh	PABP polyA inh	CSC inhib	MT1-MMP act inh	MT1-MMP act inh RFP	Rce1 inhib	UUG fidelity	Env fusion inh
O=C(Oc1ccc(/C=N/n2cnnc2)cc1)c1cccc([N+](=O)[O-])c1	5	31	-14	1	1	i	x	-23
Cc1cc(C)c(C#N)c(SCS(=O)c2ccc(C(C)(C)C)cc2)n1 (stereo not drawn)	2	-2	-12	3	0	i	0	x
Nc1nc2ccccc2n1C(=O)c1cccs1	-7	22	1	6	2	i	-27	-31
COc1ccc(NC(C)=O)cc1NC(=O)CSc1nnc(-c2ccccn2)n1C	6	-2	1	3	2	i	2	-20
CSc1ncc(Cl)c(C(=O)Nc2ccc(C)c(C)c2)n1	-16	-5	6	-6	-4	i	-15	4
O=C(NCc1ccccc1)C(=O)NCC1OCCN1S(=O)(=O)c1ccc(Br)cc1 (stereo not drawn)	-5	7	-4	3	-4	i	-2	7

Remaining list, next part.
Each structure is followed by: eIF4H inh | PABP polyA inh | CSC inhib | MT1-MMP act inh | MT1-MMP act inh RFP | Rce1 inhib | UUG fidelity | Env fusion inh
> CC(=O)NC(CC(=O)N1CCCC1)c1ccccc1 (stereo not drawn)
 : -2 | 13 | 4 | -1 | 3 | i | -6 | 10
> O=C(Nc1ccon1)c1nc[nH]c1C(=O)N1CCc2ccccc2C1
 : x | x | -36 | 0 | 0 | x | -31 | -35
> CCCOc1ccc(CN(CCC#N)C(=S)NC(=O)c2ccccc2)cc1
 : 2 | 8 | 31 | 5 | -1 | i | x | x
> COc1cc(NC(=O)CSc2ccccc2)c(C(=O)O)cc1OC
 : 3 | 19 | 1 | -6 | 3 | i | -25 | 2
> CC(=O)Nc1ccc(S(=O)(=O)NCC(=O)NNC(=O)c2csc(N3CCOCC3)n2)cc1
 : x | x | 2 | -1 | 1 | i | 2 | -13
> O=C(COC(=O)c1ccc(S(=O)(=O)N2CCCC2)cc1)Nc1ccccc1
 : x | x | 4 | -5 | 1 | x | -14 | x
> CC1(C)OC(=O)C(=CNc2ccccc2)C(=O)O1
 : 1 | 0 | -4 | 1 | -2 | i | 2 | -21
> Cn1c(=O)c2c(nc(SCC(=O)NCc3ccc4c(c3)OCO4)n2Cc2ccc(Cl)cc2)n(C)c1=O
 : 3 | 4 | -1 | 0 | -2 | i | x | 106*
> CCc1cc2c(=O)nc3n(c2s1)Cc1ccccc1/C3=C(/O)c1cccc([N+](=O)[O-])c1
 : 52* | 69* | 4 | -8 | -4 | x | -16 | x
> CC(=O)N1CCN(c2ccc(C(N)=O)cc2[N+](=O)[O-])CC1
 : -7 | -11 | -11 | 0 | -1 | i | -13 | -4

Only part of the results is shown (hit frequency here may not be typical).
